# AF4-AF9 inh: MLL-AF4/AF9 protein interaction inhibition; P42568; AlphaScreen, biotin-AF4 peptide binding to FLAG-AF9; inhibition, % at 10 µM; 0.47% of 350,000 active; AID 651704;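 active = every replicate reaching a set inhibition limit, whatever the replicate mean, cut at about 25% in these data; inconclusive = mean inhibition reaches that limit but some replicates miss it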;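 also: 0% = plate neutral control median and 100% = total signal loss; the record names both 10 and 1 µM as test concentration; the first replicate is given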
# RanGTP-Imp inh: disruptors of Ran-importin-beta complex formation – biochemical, FRET, CFP-Ran, YFP-importin-beta, homogeneous, primary screen. cell-free CFP-Ran/YFP-importin-beta FRET ratio. inhibition, % (concentration not given with the values). 1.1% of 300,000 active. AID 2216;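 active = most replicates above 15%; inconclusive = exactly half above 15%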;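 also: 0% = DMSO wells and 100% = Ran loaded with GDP instead of GTP; wells of about 40 µL received 100 nL stock; the first replicate is given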
# Calb FLC: affects C. albicans growth with fluconazole | growth inhibition, % (no concentration beside the values) | AID 1979 | 0.57% of 300,000 active | C. albicans CaCi-2 (fluconazole-resistant clinical isolate) + fluconazole, Alamar Blue growth, 48 h;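 active = most replicates above 75%; inconclusive = exactly half above 75%; inactive = most below 75%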;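 also: all wells also contain fluconazole at 8 µg/ml as a sub-toxic cotreatment; 0% = median of DMSO wells and 100% = median of geldanamycin control wells; wells of about 8 µL received 7.5 nL stock; the first replicate is given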
# Vif A3G: HIV-1 Vif–A3G interaction blockers – biochemical, TR-FRET, GST-Vif 1-94, biotin-A3G peptide, dose response retest, primary screen (AID 1117319) | inhibition, %, or IC50 in µM where a hit was titrated | TR-FRET GST-Vif / biotin-A3G peptide binding; higher % means a stronger effect; test concentration not given here; strong numbers were not always called active | 0.57% of 260,000 active;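 active = above the screen mean plus three standard deviations and confirmed in dose response; inconclusive = results disagree or hit not tested in dose response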;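 also: Vif residues 1-94 fused to GST binding biotinylated APOBEC3G peptide 110-148; 0% = full assay without inhibitor and 100% = GST in place of GST-Vif; retest series ran down from 100 µM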
# T cruzi inh: T. cruzi replication inhibition; inhibition, % (test concentration not listed); T. cruzi beta-gal in NIH3T3, luminescence, 90 h; 1.4% of 300,000 active;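 active = mean inhibition across valid replicates above about 55%, limit read from the data; inconclusive = mean below that limit but half or more replicates reach it; inactive = mean below it, under half of replicates reach it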;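 also: signal also drops with host cell toxicity which is not excluded here; 0% = plate median of DMSO wells and 100% = zero luminescence signal; higher percent means less beta-gal luminescence so fewer parasites; stock transfer was 50 nL into about 50 µL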
# Beta cell apopt: beta cell apoptosis inhibition. 0.8% of 300,000 active. AID 435005. INS-1E cytokine-induced death, ATP luminescence, 48 h; percent of positive-control rescue, neutral wells zero. protection from apoptosis, % (no concentration beside the values);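 active = all replicates at 75% or more, or half of them and the mean; inconclusive = half reach 75% but not the mean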;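 also: 0% = cytokine-treated negative control wells and 100% = positive control rescue; higher means more ATP so stronger rescue from cytokine killing; wells of about 40 µL received 100 nL stock; the first replicate is given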
# LANA-H2B inh: blocks KSHV LANA binding to histone H2A/H2B | Q9QR71 | cell-free LANA-H2A/H2B peptide, fluorescence polarization | inhibition, % (concentration not given with the values) | 0.6% of 320,000 active; in the data active = inhibition mostly above about 10%, no sharp cut-off; inactive = mostly below about 6.7%;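 also: stock transfer was 7.5 nL into about 10 µL; 0% = median of vehicle wells and 100% = median of positive control wells; one replicate is shown; the record names a cut of 25% in any replicate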
# Target sequence (Q9QR71 whole entry, looked up): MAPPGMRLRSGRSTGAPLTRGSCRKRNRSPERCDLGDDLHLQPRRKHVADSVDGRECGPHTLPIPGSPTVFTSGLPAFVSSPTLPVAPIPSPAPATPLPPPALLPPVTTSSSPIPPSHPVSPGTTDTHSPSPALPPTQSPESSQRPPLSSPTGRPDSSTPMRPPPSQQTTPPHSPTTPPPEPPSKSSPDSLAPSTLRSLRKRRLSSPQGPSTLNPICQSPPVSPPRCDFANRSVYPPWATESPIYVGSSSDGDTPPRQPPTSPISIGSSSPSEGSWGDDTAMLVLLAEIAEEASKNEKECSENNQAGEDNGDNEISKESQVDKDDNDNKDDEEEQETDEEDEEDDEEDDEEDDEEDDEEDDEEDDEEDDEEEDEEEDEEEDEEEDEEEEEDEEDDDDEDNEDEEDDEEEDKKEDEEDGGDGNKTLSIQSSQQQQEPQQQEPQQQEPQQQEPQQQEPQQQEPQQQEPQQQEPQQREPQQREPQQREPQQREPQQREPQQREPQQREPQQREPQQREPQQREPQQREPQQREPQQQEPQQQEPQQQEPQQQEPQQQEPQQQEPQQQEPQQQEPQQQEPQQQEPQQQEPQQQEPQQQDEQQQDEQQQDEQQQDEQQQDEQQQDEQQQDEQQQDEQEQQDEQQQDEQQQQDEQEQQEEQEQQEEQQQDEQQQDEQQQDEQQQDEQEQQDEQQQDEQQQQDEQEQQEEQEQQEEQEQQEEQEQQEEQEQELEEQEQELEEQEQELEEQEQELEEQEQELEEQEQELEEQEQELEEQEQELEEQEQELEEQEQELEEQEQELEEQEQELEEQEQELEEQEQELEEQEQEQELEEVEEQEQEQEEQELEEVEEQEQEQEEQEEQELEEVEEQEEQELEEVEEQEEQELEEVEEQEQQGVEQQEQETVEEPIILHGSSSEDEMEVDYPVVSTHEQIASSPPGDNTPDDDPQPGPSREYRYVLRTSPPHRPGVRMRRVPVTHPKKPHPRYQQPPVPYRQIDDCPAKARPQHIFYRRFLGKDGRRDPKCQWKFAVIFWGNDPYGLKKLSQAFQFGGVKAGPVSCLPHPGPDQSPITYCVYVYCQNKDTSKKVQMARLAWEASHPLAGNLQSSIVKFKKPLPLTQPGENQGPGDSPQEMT
# A1 inh: inhibitors of the anti-apoptotic protein A1, read as caspase activation | MEF A1-2A-BIM cells, Caspase-Glo 3/7 luminescence, 3 h; percent of clofoctol response, vehicle zero | 0.066% of 330,000 active | caspase activation, % (no concentration beside the values) | AID 2462;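 active = over half of replicate activation scores above 10%, or exactly half above 10 with the replicate mean above 10; inconclusive = replicate mean below 10 yet half the replicates above 10; inactive = over half of replicates below 10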;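 also: wells of about 30 µL received 50 nL stock; many hits fall short of the cut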
# Active calls of the source: *; ? = inconclusive; . = no result given.
SMILES,AF4-AF9 inh,RanGTP-Imp inh,Calb FLC,Vif A3G,T cruzi inh,Beta cell apopt,LANA-H2B inh,A1 inh
Cn1c(=O)c2c(-c3cccc(Br)c3)c(C#N)c(N)nc2n(C)c1=O,-1.0,2.3,-11,30%,-4,-1,-0.8,0.5
Cc1ccc(CC(=O)N2CCOCC2)cc1,.,0.6,-2,-2%,-6,2,2.9,1.3
Cc1ccc(C(=O)Nc2ncc3c(n2)CC(c2ccco2)CC3=O)cc1 (stereo not given),.,0.8,-12,4%,-2,-6,-2.8,-1.0
CCCc1nc2sc3c(=O)n(N)cnc3c2c2c1CCCC2,-4.5,?,42,4%,17,3,-4.1,0.3
CCc1cc2cc3c(cc2nc1SCC(=O)Nc1nccs1)OCO3,.,0.3,10,-4%,-8,17,-2.3,2.5
CC(C)C[C@H](NC(=O)N1CC(=O)Nc2ccccc21)C(=O)N[C@H](Cc1ccccc1)C(=O)O,-2.1,-3.2,1,.,-13,.,-5.5,0.3
CCN(C(=O)CSc1cccc[n+]1[O-])c1ccccc1,-0.9,.,.,.,.,1,-3.0,0.9
CC(C)COP(=O)(c1ccc(N(C)C)cc1)C(O)c1cccnc1 (stereo not given),3.3,-3.7,42,.,-5,0,-3.0,-0.4
Cc1cc(Nc2ccccc2F)n2ncnc2n1,-3.7,0.1,-3,27%,-18,-3,-0.2,-0.3
COc1ccc(S(=O)(=O)N2CCc3ccccc32)cc1[N+](=O)[O-],5.4,0.3,10,-7%,0,-7,1.5,-0.2
O=C(Nc1ccc(Cl)cc1-c1nc2ccccc2s1)c1ccco1,.,3.1,-10,24%,18,-4,2.6,0.5
CP(C)(=O)CCP(=O)(c1ccccc1)c1ccccc1,-0.8,?,7,.,0,-3,-2.2,1.7
O=C(Cc1ccc(S(=O)(=O)N2CCOCC2)s1)N1CCN(S(=O)(=O)c2cccc([N+](=O)[O-])c2)CC1,0.1,0.2,-7,3%,8,0,0.4,0.0
COc1cccc(NC(=O)C(=O)N2CCOCC2)c1,.,2.1,-9,.,6,5,-2.0,-0.9
O=C(CSc1ncnc2ccccc12)NCc1ccco1,.,-1.1,-4,27%,-17,1,2.8,0.3
C[C@H](NC(=O)c1ccccc1Cl)C(=O)OCCOc1cccc(Cl)c1,4.5,2.2,6,19%,-3,0,-3.3,-0.2
CCCC(=O)Nc1ccc2c(c1)COC2=O,2.2,-3.3,22,6%,2,5,-2.0,-0.2
CC(=O)N1CCN(c2ccc(S(=O)(=O)NCCN(C(C)C)C(C)C)cc2[N+](=O)[O-])CC1,.,1.5,-14,-4%,8,0,5.7,0.4
COc1cccc(C(=O)OCC(=O)Nc2cc(C)c(C)cc2[N+](=O)[O-])c1,-1.1,-2.1,-10,.,-2,-7,-2.2,-3.9
COc1ccccc1N(CC(=O)Nc1ccccc1C(=O)NC(C)C)S(C)(=O)=O,.,-1.1,-1,10%,-3,4,-4.6,0.0
O=S(=O)(NCc1ccc(Cl)cc1)c1ccc(Cl)nc1,.,3.7,0,1%,6,-1,4.8,-0.1
CNc1ccc([N+](=O)[O-])cc1-c1nc2ccccc2[nH]c1=O,0.0,5.1,-9,6%,2,12,4.2,-0.1
CCOC(=O)c1ccccc1NC(=O)CSc1nccn1C,.,3.0,2,65%,-15,-5,-3.1,-0.4
Cc1ccc(-c2nc(CSCC(=O)NCC3CCCO3)c(C)o2)cc1 (stereo not given),1.1,-6.0,3,-3%,6,9,5.2,0.2
Cc1c(OCC(F)(F)F)ccnc1CSc1nc2ccccc2[nH]1,.,-1.6,0,-1%,6,3,-3.6,-1.2
Cn1c2ccccc2c2nnc(SCC(=O)NC3CCCC3)nc21,-0.6,0.3,-28,-6%,-2,-1,6.7,-0.2
O=C(Cn1cnc2ccccc21)Nc1ccc(C(=O)O)cc1,.,1.3,2,-4%,2,-5,2.0,0.4
COc1cc2ccccc2cc1C(=O)NC(=S)Nc1nnn(C)n1,.,?,0,4%,8,.,4.3,0.2
COc1ccc(CN(C)C(=O)CNC(=O)CNC(=O)c2ccc(Cl)cc2Cl)cc1F,0.7,?,-1,-1%,-12,.,1.4,1.1
N#CC[C@H](c1ccccc1)N1CCN(Cc2ccccc2)CCC1=O,-0.3,5.6,-4,.,13,-10,4.3,-0.4
O=C1NC(=Nc2cccc(Cl)c2)SC1Cc1cccc(Cl)c1Cl (stereo not given),0.6,0.4,-4,1%,24,8,-4.2,0.2
O=C(O)c1ccc2c(=O)n3c(nc2c1)/C(=C/c1cccc(Cl)c1Cl)CCCC3,.,0.0,-5,.,20,7,1.0,0.3
COc1ccc2c(=O)c(-c3ccccc3)coc2c1,-12,-1.7,-16,-1%,-1,1,9.6,0.1
CCc1ccc(OCCNC(=O)c2ccco2)cc1,-3.0,0.9,-12,.,-2,1,-0.1,0.4
Cc1onc(-c2c(Cl)cccc2Cl)c1C(=O)N1CCc2ccccc21,.,0.8,?,19%,5,0,-4.4,-0.4
NC(=O)C1(c2ccccc2)CCC(=O)N1c1ccccc1 (stereo not given),3.7,0.5,14,0%,-8,0,0.7,1.3
COc1ccc(-c2oc(/N=C/N3CCCC3)c(C#N)c2-c2ccc(OC)cc2)cc1,.,-0.1,-6,-2%,58*,16,3.7,1.5
Cc1ccc(S(=O)(=O)N(CC(=O)Nc2ccc(Cl)c([N+](=O)[O-])c2)C2CCCCC2)cc1,.,0.2,-5,23%,59*,42,4.1,-0.2
c1ccc(-c2nc(C3CCCCC3)c3ccccc3n2)cc1,-6.1,-2.0,-1,.,-21,-2,-2.4,0.0
COc1ccc(NC(=O)c2ccco2)cc1NC(=O)c1cccnc1,.,-0.9,-18,18%,-25,0,1.6,-0.9
O=C(CNC(=O)/C=C/c1ccco1)N=Nc1c(O)[nH]c2ccccc12,1.5,?,0,.,-10,-5,-5.5,0.0
N#Cc1cc2c(=O)n3ccccc3nc2n(CCCn2ccnc2)c1=N,.,140*,-3,3%,-3,6,-3.6,-0.1
COCCN(C(=O)CSc1nnc(C)n1Cc1ccccc1)c1c(N)n(CC(C)C)c(=O)[nH]c1=O,-4.0,0.2,7,.,0,1,0.2,-0.1
Cc1csc(=O)n1CC(=O)OCC(=O)NNC(=O)c1ccc([N+](=O)[O-])cc1,1.0,.,2,8%,-9,-2,0.0,0.3
CCCNC(=O)CCn1cc(-c2ccc(OC)cc2)nc1CCN,2.1,-0.2,12,.,-12,-7,3.9,1.0
c1ccc(-c2cnc(-c3cccnc3)o2)cc1,.,.,.,0%,.,-2,-7.2,-2.0
O=C1NCCN(Cc2ccoc2)C1CC(=O)N(CCO)Cc1ccccc1 (stereo not given),1.3,?,8,9%,-3,.,-0.5,-0.3
O=[N+]([O-])c1cccc(Nc2nc(Cl)nc(Cl)n2)c1,3.2,-1.0,12,?,1,-3,-1.3,0.0
O=C(NCCCN1CCc2ccccc2C1)Nc1ccc(Cl)cc1,.,-0.2,-31,-5%,9,1,-0.2,-0.1
O=C1C2CCC(C(O)C2)N1Cc1ccccc1 (stereo not given),.,1.9,-2,28%,4,-2,-0.7,1.0
# Carrying on:
SMILES,AF4-AF9 inh,RanGTP-Imp inh,Calb FLC,Vif A3G,T cruzi inh,Beta cell apopt,LANA-H2B inh,A1 inh
CC(C)NC(=O)NC(=O)COc1ccc(Br)cc1Br,-6.5,2.9,-34,.,-6,-7,7.1,-2.4
Cc1ccc(C)c(OCc2nnc(N)s2)c1,.,2.3,1,?,-10,-9,3.0,1.0
COc1ccc(Nc2oc(COc3cccc(C)c3)nc2C#N)cc1,.,1.9,-20,-2%,26,5,-4.2,-0.4
COc1cccc(CC(=O)n2nc(N)c3cc4ccc(OC)cc4nc32)c1,-6.6,-1.0,0,5%,0,-10,5.8,0.2
CC1CN(C(=O)c2cccc(S(=O)(=O)Nc3ccccc3Cl)c2)CC(C)O1 (stereo not given),-0.2,1.4,0,.,-4,-4,-1.7,0.1
Cc1cc(OCC(=O)NCC2CCC(C(=O)O)CC2)c2c(C)c(Cc3ccccc3)c(=O)oc2c1 (stereo not given),0.3,1.8,3,.,-15,.,-9.9,0.0
CC(C(=O)N(C1CC1)C1(C(=O)Nc2ccccc2)CCCC1)N1C(=O)c2ccccc2C1=O (stereo not given),.,1.8,1,-4%,7,0,4.3,-0.5
Cc1oc(-c2ccc(-c3ccccc3)cc2)nc1CN1CCN(CC(=O)N(C)C)CC1,0.6,-2.6,-17,.,17,.,4.1,-0.3
COc1cccc(CN(C)CC(=O)NCc2ccccc2Cl)c1OC,-0.4,-4.0,-3,-3%,19,-6,-7.2,0.1
CCN(CC)c1ccc(N=Cc2ccc([N+](=O)[O-])o2)cc1,46*,-0.4,91*,.,49,75*,6.0,0.8

# Records listed so far that bear a hit mark in AF4-AF9 inh:
SMILES	AF4-AF9 inh	RanGTP-Imp inh	Vif A3G	LANA-H2B inh
CCN(CC)c1ccc(N=Cc2ccc([N+](=O)[O-])o2)cc1	46*	-0.4	.	6.0

# (continued)
SMILES,AF4-AF9 inh,RanGTP-Imp inh,Calb FLC,Vif A3G,T cruzi inh,Beta cell apopt,LANA-H2B inh,A1 inh
CCOc1ccc(CN2CCN(Cc3cccc4c3OCO4)CC2CCO)cc1 (stereo not given),5.0,0.4,9,0%,97*,.,0.2,-1.0
COc1ccc(C(=O)NC2(C(F)(F)F)C(=O)Nc3c2c(=O)[nH]c(=O)n3CCc2ccc(OC)c(OC)c2)cc1 (stereo not given),.,-0.3,2,28%,-18,4,-6.5,0.7
COC(=O)c1sccc1NC(=O)Cn1nnc(-c2ccccc2C)n1,-4.6,-1.7,-6,-2%,-9,-1,-2.4,-0.2
Cc1cccc(NC(=O)CCC(=O)NCCO)c1,.,1.1,-1,-1%,-2,12,3.3,-0.3
O=C(Nc1ccccc1)c1ccc(N2CCN(c3ccccn3)CC2)c(S(=O)(=O)N2CCOCC2)c1,.,?,-6,9%,20,.,0.1,0.9
COC(=O)CN(c1ccccc1OC)S(=O)(=O)c1ccccc1,.,-1.9,-20,0%,-12,-10,5.9,0.8
COc1ccc(Nc2cc(C(=O)NCCCN3CCN(C)CC3)c3ccccc3n2)cc1OC,.,2.0,1,3%,-9,-6,1.5,-0.2
CC(C)CNC(=O)c1cccc(NC(=O)C2CCCO2)c1 (stereo not given),.,1.0,-2,-3%,-4,-5,0.3,-0.5
CN(C)CCCOC(=O)c1ccccc1,.,2.3,6,4%,-8,-1,1.0,0.1
CCCCOC(=O)CSc1nc2c(cc1C#N)C(=O)CC(C)(C)C2,.,?,20,-11%,17,7,0.7,0.3
Cc1cccc(C)c1NS(=O)(=O)c1c(C(=O)N2CCCCC2)c(C)n(C)c1C,-0.5,0.2,4,.,5,0,-0.6,0.7
COCc1c(C(=O)OCC(=O)N2c3ccccc3CC2C)oc2ccccc12 (stereo not given),.,5.2,-8,1%,-20,-4,0.3,0.7
Cn1c(=O)c2c(nc(SCc3ccc(C(=O)O)cc3)n2C)n(C)c1=O,-10,4.4,0,-2%,-4,-7,-3.6,0.4
CCNC(=O)COC(=O)c1cc(C)n(-c2ccccc2)c1C,0.6,2.3,20,-1%,-6,-2,0.4,-0.1
COc1ccc([C@H]2CC(=O)C=C(c3ccc(-c4ccccc4)cc3)C2)cc1OC,1.7,.,.,.,.,4,0.6,-2.3
O=C(NCCN1CCNCC1)c1ccccc1O,4.5,-3.0,0,.,-7,.,-0.2,0.5

# Compounds as they come; about 4.3% have a hit in one of these screens.
